High-throughput results (PubChem BioAssay)
HPGD block = qHTS Assay for Inhibitors of HPGD (15-Hydroxyprostaglandin Dehydrogenase) | 15-hydroxyprostaglandin dehydrogenase [NAD(+)] (Homo sapiens), P15428 | 150,000 compounds, 4.3% hits | AID 894, 2007 | purified HPGD, NADH fluorescence kinetic, PGE2 substrate | Potency, µM, without a hit: top-dose activity change, negative = inhibition, actives largely listed as inhibitors; active = well fitted inhibition curve with a large enough effect (not every such curve was filed as active); inconclusive = small, poorly fitted or top-dose-only effect, or another doubt; inactive = no such curve, though single readings can be large or run the other way;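 note: top concentration of the series not given in the record; plate controls included wells without enzyme; inactives centre near -10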
Target sequence (P15428 whole entry, looked up): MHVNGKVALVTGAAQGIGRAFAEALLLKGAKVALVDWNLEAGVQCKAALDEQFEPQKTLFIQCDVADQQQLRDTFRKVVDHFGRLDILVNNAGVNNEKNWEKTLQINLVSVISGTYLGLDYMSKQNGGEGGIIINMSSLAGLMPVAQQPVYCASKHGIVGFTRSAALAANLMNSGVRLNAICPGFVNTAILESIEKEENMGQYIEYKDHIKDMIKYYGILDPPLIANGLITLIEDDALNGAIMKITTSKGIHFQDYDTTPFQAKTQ
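20 nM HPGD preincubated 15 min at room temperature with compound in 50 mM Tris-HCl pH 8, 0.01% Tween 20. Started with 1 mM NAD+ and 30 uM prostaglandin E2; NADH fluorescence (360/450 nm) read 5 times over 30-s intervals, last minus first.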
An asterisk follows results filed as active; ? = inconclusive. % is set by controls: 0 for no effect and ±100 for the full control effect; potency is the fitted concentration of half-maximal effect. Only part of the results is shown, so the mix of outcomes need not match the whole.

item | compound | HPGD block
1 | COC(=O)CCCCC(=O)C1C(=O)CC(C)(C)C(C(=O)OC)C1=O (configuration not stated) | -3%
2 | CCOC(=O)Cn1c2ccc(OC)cc2c2nc3ccccc3nc21 | -7%
3 | COc1cc2cc(C(c3nnnn3Cc3ccc(F)cc3)N3CCCCCC3)c(=O)[nH]c2cc1OC (configuration not stated) | -21%
4 | COc1ccccc1-c1cc(C(=O)Nc2cccnc2)no1 | -14%
5 | CNC(=O)c1ccc(-n2nc(C)cc2-c2ccccc2)cc1 | -19%
6 | Fc1ccc(N2CCN(/C=C/c3nnnn3-c3ccccc3)CC2)cc1 | -30%
7 | O=[N+]([O-])c1cc(-c2ncccn2)cs1 | -9%
8 | CCCC(=N)C1=C(O)CC(CC(C)SCC)CC1=O (configuration not stated) | -10%
9 | Cc1ccc(C(=O)OC2CCN(c3ccc([N+](=O)[O-])cc3)CC2)cc1 | -11%
10 | COC(=O)c1cnn2c(C)c(Cc3cccc(F)c3)c(C)nc12 | ?
11 | COC(=O)c1ccc(C(NC(=O)OCc2ccccc2)/C(C)=C/[C@@H](C)C(=O)NCc2cc(C)on2)cc1 (some centres not stated) | -10%
12 | CCN(C(=O)COC(=O)CNC(=O)c1ccc(C)c(C)c1)C1CCS(=O)(=O)C1 (configuration not stated) | -12%
13 | Cc1c(Cl)cccc1NC(=O)CC1SCCNC1=O (configuration not stated) | -1%
14 | O=C(Nc1ccc(N2CCOCC2)cc1)c1cccc(S(=O)(=O)N2CCCCC2)c1 | 9%
15 | Cc1ccc(NC(=O)N2CCCC2C(=O)NCCc2ccccc2)cc1 (configuration not stated) | 0%
16 | Cc1ccc(-c2nnn(CC(=O)N(CCO)C(C(=O)NC(C)(C)C)c3ccncc3)n2)cc1 (configuration not stated) | -5%
17 | CCOC(=O)c1c(N/N=C/c2ccncc2)n[nH]c1C | -7%
18 | COCC(=O)N1CCC2(CC1)CN(c1ccccn1)C2 | ?
19 | O=C(N/N=C/c1cc([N+](=O)[O-])ccc1N1CCNCC1)c1ccc([N+](=O)[O-])cc1 | -16%
20 | Cc1ccc(CNC(=O)C2CCN(S(=O)(=O)c3c(C)noc3C)CC2)cc1 | 1%
21 | CC(=O)Nc1cccc(NC(=O)COc2nncc3ccccc23)c1 | -6%
22 | COC(=O)c1ccc(C2NC(=S)N(c3ccccc3)C(C)=C2C(=O)Nc2ccccc2OC)cc1 (configuration not stated) | 1%
23 | S=C(c1cn(CCOc2ccccc2)c2ccccc12)N1CCCC1 | -23%
24 | N#CCSc1nnc2ccc3ccccc3n12 | ?
25 | O=C(NC12CC3CC(CC(C3)C1)C2)c1ccc(-c2ccc(Br)cc2)o1 | -20%

Later entries:
item | compound | HPGD block
26 | COc1ccc(C(=O)Oc2ccc(=O)n(-c3ccccc3)n2)cc1 | -11%
27 | Cc1nn(-c2ccccc2)c(Cl)c1C(=O)NCCCCNC(=O)c1c(C)nn(-c2ccccc2)c1Cl | -23%
28 | O=C(Nc1nnc(C2=COCCO2)o1)c1ccc(Cl)cc1 | -9%
29 | COCCNC(=O)c1onc(CSc2ccc(C)c(C)c2)c1C(=O)O | -15%
30 | COCCn1c(N)c(C(=O)NCC2CCCO2)c2nc3ccccc3nc21 (configuration not stated) | ?
31 | N#CC(C#N)=c1ccc2c(c1)N1C3=C(CCCC3)CC3CCCCC31N=2 (configuration not stated) | -7%
32 | COc1ccc(CNC(=O)OCCN2CCN(S(=O)(=O)c3ccc(C)cc3)CCC2=O)cc1 | -7%
33 | COC/C=C/C1=CC2=CC(=O)C(C)(OC(=O)c3cnc4ccccc4n3)C(=O)C2=CN1CC(C)C (configuration not stated) | -1%
34 | c1ccc(-c2n[nH]c(-c3ccccn3)n2)cc1 | -11%
35 | COc1ccc(/C=N/S(=O)(=O)CCc2ccccc2)c(OC)c1 | ?
36 | Cc1nc(C)c(C(=O)NNS(=O)(=O)c2ccc([N+](=O)[O-])cc2)s1 | 1%
37 | CC(C)(C)c1ccc(C(=O)Nc2ccc(NC(=O)c3ccco3)cc2)cc1 | ?
38 | COc1ccc(NC(=S)Nc2ccc3nsnc3c2)cc1 | -4%
39 | Cc1ccn(C(CC(=O)c2ccc(Br)cc2)C(=O)O)n1 (configuration not stated) | -11%
40 | Cc1cccc(OCCC(=O)OCC(=O)N2CCc3ccccc32)c1 | -11%
41 | Cc1ccc(Oc2ncnc3sccc23)cc1 | -14%
42 | O=C(Nc1ccc2c(c1)nc1n2CCCCC1)c1cc(S(=O)(=O)N2CCOCC2)ccc1Cl | 6%
43 | CC1=C(C(=O)OCc2ccc3c(c2)OCO3)C(c2ccc(Cl)cc2)NC(=O)N1 (configuration not stated) | -11%
44 | CC1(C(=O)NC2CCCC2)CCC(=O)N1Cc1ccc2c(c1)OCO2 (configuration not stated) | -2%
45 | O=C(Cn1c(=O)oc2ccccc21)N1CCN(c2ccc(N3CCOCC3)nn2)CC1 | ?
46 | Brc1ccccc1OCCOCCOc1cccc2cccnc12 | -5%
47 | Cc1[nH]n(-c2ccc(Cl)cc2)c(=O)c1C=NC12CN3CN(CN(C3)C1)C2 | -12%
48 | C=C(C)COc1ccc2c(C)c(C)c(=O)oc2c1OCC(=C)C | -23%
49 | Nc1nc(CSc2nc3ccccc3s2)nc(N2CCCCC2)n1 | -15%
50 | O=C(NC1c2ccccc2-c2ccccc21)N1CCCCC1 | -6%

(list continues)
item | compound | HPGD block
51 | COc1ccc(-c2cc3nc(C4CCN(C(=O)OC(C)(C)C)CC4)c(C(=O)O)cn3n2)cc1 | ?
52 | O=C(C(NS(=O)(=O)c1cccc2nsnc12)c1ccccc1)N1CCN(c2ccccc2)CC1 (configuration not stated) | -14%
53 | Cc1cc2cc(CN(Cc3cccs3)C(=S)NCC3CCCO3)c(=O)[nH]c2cc1C (configuration not stated) | -19%
54 | COc1ccc(S(=O)(=O)N(CC(=O)NCCCN(C)C)c2ccc(C)cc2)cc1OC | -1%
55 | CC(C)c1ccc2c(c1)C(=O)NC(C)(C)C2 | ?
56 | Cc1cc(NC(=O)CSc2cn(C)c3ccccc23)no1 | -6%
57 | CCOc1cccc(Nc2cc3n(c(=O)n2)CCc2cc(OC)c(OC)cc2-3)c1 | ?
58 | COc1ccc(CNC(=O)C(c2ccco2)N(C(=O)CNS(=O)(=O)c2ccccc2)c2ccccc2C)cc1 (configuration not stated) | -5%
59 | O=c1c2ccccc2nc(-c2ccco2)n1CCCn1ccnc1 | -12%
60 | CC(Nc1nc(N2CCCC2)nc2ccccc12)c1ccccc1 (configuration not stated) | -12%
61 | Cc1sc2ncnc(N(C)Cc3cccs3)c2c1C | -26%
62 | C=CCn1c(O)c(C(CC)=Nc2ccccc2NC(=O)CC)c(=O)[nH]c1=O | 0%
63 | CCC(=O)Nc1nc(C)c(-c2csc(Nc3ccc(S(=O)(=O)Nc4cc(C)on4)cc3)n2)s1 | -22%
64 | COC(=O)c1ccc(N(CC(=O)NC2CCCC2)C(=O)CNC(=O)c2ccco2)cc1 | -19%
65 | N=c1c2c(n(Cc3ccc(Cl)cc3)c3c1CCC3)CCC2 | -30%
66 | CCN(CC)C(=O)Oc1cc(=O)n(C)c2ccccc12 | -3%
67 | CCOc1cc(/C=C/c2cc(C(=O)O)c3ccccc3n2)ccc1OC | -24%
68 | CC(C)(C)n1nnnc1CN1CCN(C(c2ccccc2)c2ccccc2)CC1 | -11%
69 | COc1cc(S(=O)(=O)NCc2cccnc2)ccc1F | -4%
70 | O=C(CCn1c(=O)oc2ccccc21)Nc1ccon1 | -13%
71 | NC(=O)c1cc[n+](CC2=C(C(=O)O)N3C(=O)[C@@H](NC(=O)C(c4ccccc4)S(=O)(=O)[O-])[C@H]3SC2)cc1 (some centres not stated) | -14%
72 | CCc1nc(NCCCN2CCOCC2)c2oc3ccccc3c2n1 | -8%
73 | CC(C)(C)NC(=O)c1ccnc(C(C)(C)C)c1 | -10%
74 | CCCCCOc1ccc(C(=O)NCC2(c3ccccc3)CCOCC2)cc1 | -20%
75 | CC12CN(Cc3ccccc3)CC(C)(CN(Cc3ccccc3)C1)C2=NO | -3%

Carrying on.
item | compound | HPGD block
76 | CC(C(=O)N1CCN(C2c3ccccc3-c3ccccc32)CC1)N1C(=O)c2ccccc2C1=O (configuration not stated) | -13%
77 | O=C1Oc2ccccc2C(=O)/C1=C\N1C(=O)N/C(=C\c2ccccc2O)C1=O | -8%
78 | CCOC(=O)N1CCC(Nc2c(Nc3cccc(CC)c3)c(=O)c2=O)CC1 | ?
79 | CCn1c(C2CC(=O)N(c3ccc(C)c(C)c3)C2)nc2ccccc21 (configuration not stated) | -25%
80 | CCCC[C@@H]1C[C@H]1C(NC(=O)Cc1ccccc1)c1ccc(Cl)cc1 (some centres not stated) | -14%
81 | CCC(=O)NC(=S)NNC(=O)c1ccc([N+](=O)[O-])cc1 | -27%
82 | Cc1cc(C)cc(NC(=O)CN(C)S(=O)(=O)c2cccc3nsnc23)c1 | -8%
83 | COc1cccc(/C=N/Nc2cc(-n3nc(C)cc3-c3ccccc3)ncn2)c1O | -11%
84 | Cc1ccccc1N(C(=O)Cc1cccs1)C(C(=O)NC1CCCCC1)c1cn(C)nc1C (configuration not stated) | 0%
85 | O=C(Nc1cccc2ncccc12)c1ccc(-c2ccc(Cl)cc2Cl)o1 | -16%
86 | Cc1sc2nc(C(C)(C)C)oc(=O)c2c1C | -13%
87 | CCOC(=O)c1cnc2ccc(C(=O)OC)cc2c1NCCN1CCOCC1 | -20%
88 | CC(C)n1c(N2CCN(C(=O)Nc3ccc(F)cc3F)CC2)nc2ccccc21 | -13%
89 | CCOC(=O)C(NC(=O)NCc1ccccc1)(OCC)C(F)(F)F (configuration not stated) | -3%
90 | O=C(CSc1nnc(-c2ccccc2)n1C1CCCCC1)N1CCCC1 | -5%
91 | O=C(c1cnn2ccccc12)N(Cc1ccco1)C1CCCC1 | -10%
92 | O=C(Nc1ccccn1)C1COc2ccccc2O1 (configuration not stated) | -18%
93 | O=C(Nc1cccc(F)c1)N1CCCC2(CCN(C(=O)c3cc(C(F)(F)F)cc(C(F)(F)F)c3)CC2)C1 | -7%
94 | N#Cc1ccc2ccn(CC(=O)NCc3ccco3)c2c1 | -11%
95 | CC1CCCN(C(=O)C2CCN(S(=O)(=O)c3cccc4cccnc34)CC2)C1 (configuration not stated) | 14µM*
96 | CCOC(=O)N1CCC(NC(=O)C(CC(C)C)NC(=O)C2CCCCC2)CC1 (configuration not stated) | 2%
97 | NC(=O)CN1CCOCCOCCN(CC(N)=O)CCOCCOCC1 | -9%
98 | CCOC(=O)/C(C#N)=C1/C=Cc2ccccc2N1CC | -17%
99 | Cc1ccc(S(=O)(=O)NC2c3cccc4cccc(c34)C2Sc2n[nH]c(N)n2)cc1 (configuration not stated) | -14%
100 | COc1ccc(CCN2C(=O)CC(N3CCN(c4ccccn4)CC3)C2=O)cc1OC (configuration not stated) | -12%

New compounds follow
item | compound | HPGD block
101 | O=C(OCc1ccc2c(c1)OCO2)c1cccc(S(=O)(=O)N2CCCCC2)c1 | ?
102 | COc1ccc(C(=O)N=c2sc3c(C)ccc(OC)c3n2C)cc1 | ?
103 | c1cn(C23CC4CC(CC(C4)C2)C3)cn1 | -5%
104 | O=C(C[n+]1cc(-c2ccccc2)n2c1CCC2)Nc1nc(-c2ccccc2)cs1 | -5%
105 | COc1ccc(C(=O)Nc2ccc(C(F)(F)F)n(C)c2=O)cc1 | -21%
106 | CCOc1ccc(C(=O)Nc2cc(C)c3c(=O)oc4ccccc4c3n2)cc1 | -16%
107 | CCC1CCC2(CC1)NC(CO)(CO)CO2 (configuration not stated) | -7%
108 | CCOc1ccc(CC(=O)NNC(=S)NC2CCCCC2)cc1OCC | -7%
109 | NC(Cc1ccccc1)(C(=O)O)C(=O)O | -3%
110 | O=C(NC1CC2CCCC(C1)N2S(=O)(=O)c1ccccc1)c1ccco1 (configuration not stated) | -1%
111 | O=C(c1cc(-c2ccc(Cl)c(Cl)c2)on1)N1CCCC1 | -10%
112 | Cc1ccc(/C=N/n2c(C)nnc2C)s1 | -14%
113 | Cc1ccc(NC(=O)Nc2ccc(C(=O)N3CCOCC3)cc2)cc1 | -27%
114 | Cc1cc(N2C(=O)CC(N3CCN(C(c4ccccc4)c4ccccc4)CC3)C2=O)no1 (configuration not stated) | 2%
115 | CCOc1ccc(N(CC(=O)Nc2ccc3c(c2)OCCO3)S(=O)(=O)c2c(C)noc2C)cc1 | -7%
116 | CCCNC(=O)c1cc(S(=O)(=O)N2CCc3ccccc32)ccc1F | -12%
117 | CCC(c1nnnn1CS(=O)(=O)c1ccc(C)cc1)N1CCN(c2nc3ccccc3s2)CC1 (configuration not stated) | -17%
118 | Cc1[nH]n(-c2ccccc2)c(=O)c1-c1cccc(Cl)c1 | -20%
119 | Cc1cccc(Oc2nc(CN3CCOCC3)nc3sc4c(c23)CCCC4)c1 | -16%
120 | O=C(Nc1ccccn1)c1ccc2c(c1)S(=O)(=O)c1ccccc1C2=O | -16%
121 | COCCN(Cc1cc2cc3c(cc2[nH]c1=O)OCO3)C(=O)c1cccs1 | -23%
